TRPML1 agonist = agonists of human TRPML1 channel; Q9GZU1; TRPML1-expressing cells, Ca2+ dye fluorescence, FDSS; host cell line not named in the record; reference of the full effect not given here; activation, % (no concentration beside the values); hit rate 0.12% among 410,000; AID 624414; in the data active = activation above about 50%; inconclusive = about 30% to 50%; inactive = below about 30%; also: 0% is about no effect; the text of the record puts the active cut at 80%
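Cells: TRPML1-DL, 1X Tet inducer, ~16 h at 37 degrees C/5% CO2. Dye: ABD Ca8 no-wash + quencher, 45-90 min RT. Read: 10 s baseline, compound add, 110 s agonist phase; 54-4 EC80 (4uM final), 110 s antagonist phase.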
D2 potentiator = human D2 receptor positive allosteric modulation; DiscoveRx D2 beta-arrestin cells, luminescence, 90 min; 100% = 57 uM dopamine signal; hit rate 0.23% among 360,000; AID 624464; potentiation, % (no concentration beside the values); P14416; active = potentiation of 50% or more; inconclusive = 30% to 50%; inactive = 30% or less;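 also: compound concentration not given in the record; tested on top of an EC20 dose of dopamine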
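PathHunter beta-arrestin assay in DiscoveRx D2 cells. Compounds were added with an EC20 of dopamine (50 nM final) for 90 min at 37 deg C. Luminescence was read 1 h after detection reagent, with 57 uM dopamine as the EC100 control.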
Six1-Eya2 blk = inhibitors of human Six1/Eya2 interaction; AlphaScreen GST-Six1/His-Eya2 binding, biochemical; hits give low values; control for the full effect not named in the record; AID 651725; activity change, % (no concentration beside the values); hit rate 0.56% among 360,000; Q15475+O00167; in the data active = activity change below about -65%; inconclusive = about -30% to -65%; inactive = above about -30%; also: % is scaled to controls: 0 for no effect and ±100 for the full control effect; compound concentration not given in the record
Target sequence (O00167 whole entry, looked up): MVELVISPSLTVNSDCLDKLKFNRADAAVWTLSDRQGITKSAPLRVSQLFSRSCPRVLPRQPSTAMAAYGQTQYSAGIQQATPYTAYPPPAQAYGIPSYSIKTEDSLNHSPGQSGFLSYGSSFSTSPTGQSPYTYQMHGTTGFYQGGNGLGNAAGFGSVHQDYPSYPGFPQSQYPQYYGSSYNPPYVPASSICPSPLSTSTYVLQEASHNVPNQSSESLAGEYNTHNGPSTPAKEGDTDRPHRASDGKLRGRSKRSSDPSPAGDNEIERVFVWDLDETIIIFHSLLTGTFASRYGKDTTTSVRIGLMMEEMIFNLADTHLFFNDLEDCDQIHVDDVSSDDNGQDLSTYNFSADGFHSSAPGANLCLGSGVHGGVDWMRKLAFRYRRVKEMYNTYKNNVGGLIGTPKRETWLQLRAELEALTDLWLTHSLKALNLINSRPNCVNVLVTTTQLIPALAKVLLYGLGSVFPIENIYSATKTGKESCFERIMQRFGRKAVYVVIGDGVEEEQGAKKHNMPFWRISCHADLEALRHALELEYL
Target sequence (Q15475 whole entry, looked up): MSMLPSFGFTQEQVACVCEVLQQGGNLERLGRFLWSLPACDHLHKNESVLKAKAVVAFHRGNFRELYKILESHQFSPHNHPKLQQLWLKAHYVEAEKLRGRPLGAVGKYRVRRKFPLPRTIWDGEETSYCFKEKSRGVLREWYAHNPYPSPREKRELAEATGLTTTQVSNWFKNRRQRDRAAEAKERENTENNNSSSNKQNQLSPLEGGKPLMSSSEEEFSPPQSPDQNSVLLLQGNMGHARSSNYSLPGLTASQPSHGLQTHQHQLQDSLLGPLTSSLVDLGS
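GST-Six1 + His-Eya2 (5X stock: 250/500 nM); Tris pH 8.0, 300 mM NaCl, 0.05% BSA, 0.02% Tween 20; GSH donor/Ni acceptor beads; 1 h 37 °C dark; AlphaScreen readout.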
PINK1 expr mod = PINK1 expression modulation; PINK1 immunofluorescence, high-content cytometry, 24 h; Potency, µM (highest dose often 76.6 µM), for the others: at the highest dose activation (PINK1 increase), usual class: activators; hit rate 0.2% among 410,000; AID 624263; active = well fitted activation curve with a large enough effect; inconclusive = small, poorly fitted or top-dose-only effect; inactive = flat fitted curve, though single readings scatter; cell line not stated here;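 also: potency is read from the fitted curve at half-maximal effect; % of control where 0% means no effect; nearly all actives have a fitted effect of over 65% in size; a mitochondrial uncoupler was the plate control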
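Readout is PINK1 immunofluorescence, quantified alongside mitochondrial, cell and nuclear markers by laser-scanning microplate cytometry. Cells from a stable line were exposed to compound titrations (5 concentrations) for 24 hours, with CCCP controls.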
D2 agonist = human D2 receptor agonism in beta-arrestin assay | P14416 | AID 624465 | activation, % (concentration not given with the values) | hit rate 0.084% among 360,000 | DiscoveRx PathHunter D2 beta-arrestin, luminescence, 90 min; 100% = 57 uM dopamine signal; in the data active = activation above about 40%; inconclusive = about 15% to 40%; inactive = below about 15%; also: compound concentration not given in the record; the text of the record calls up to 30% inactive
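DiscoveRx PathHunter D2 beta-arrestin cells (2,100/well) attached overnight, then compound-stimulated 90 min at 37 C in HBSS/10 mM HEPES/0.1% Tween-20 buffer; beta-galactosidase complementation read by luminescence after 1 h at ambient temperature. Dopamine 57 uM final (EC100) as control.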
CtBP-E1A blk = inhibitors of CtBP/E1A interaction; AlphaScreen GST-E1A/His-CtBP binding, 1536-well; hits give low values; control for the full effect not named in the record; activity change, % (no concentration beside the values); hit rate 0.49% among 340,000; AID 651724; in the data active means activity change below about -65%; inconclusive means about -30% to -65%; inactive means above about -30%; also: % is scaled to controls: 0 for no effect and ±100 for the full control effect; compound concentration not given in the record
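AlphaScreen with 125 nM GST-E1A and 125 nM His-CtBP (5X stocks) in Tris pH 8.0, 300 mM NaCl, BSA, Tween 20, TCEP. Compounds preincubated 2 h at 37 deg C, then glutathione donor/nickel acceptor beads added for 1 h at 37 deg C in dark.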
* marks the source's active call; other numbers are inactive results; . = no result given; [ ] = remark or other dose. Rows are unselected. Share with any hit: about 1.3%.

SMILES	TRPML1 agonist	D2 potentiator	Six1-Eya2 blk	PINK1 expr mod	D2 agonist	CtBP-E1A blk
c1ccc(Nc2ccccc2Nc2ccccn2)nc1	3.5	-10	-6	1.0%[38.3 µM]	-1.2	-2
Cc1cccc(C)c1-n1nnnc1SCC(=O)N1CCNC1=O	-0.3	-18	-2	3.5%	0.2	8
CC(=O)N1CCN2C(=O)C1CCCC(=O)c1cc(C)ccc12 (configuration not stated)	-0.7	10	11	0.0%	-1.9	13
Cc1ccc(C)c(N2CCN(C(=O)CCC(=O)Nc3nnc(CC(C)C)s3)CC2)c1	-1.3	-11	1	7.2%	-3.4	7
O=C(NCC1CCN(Cc2ccc(F)cc2)CC1)C1CCCN(c2ncnc3c2nc2n3CCCCC2)C1 (configuration not stated)	0.8	-17	10	0.0%	-1.8	.
Cc1oc(-c2cc(F)ccc2F)nc1CN1CCCN(C(=O)c2ccco2)CC1	-0.7	-19	-3	1.1%	-0.4	3
O=C(COc1ccc(Cl)cc1Cl)N1CCCN(C(=O)COc2ccc(Cl)cc2Cl)CC1	-0.2	-15	-21	-0.7%	-1.0	-22
C=CCN1C(=O)C2(OCCCO2)c2cc(CCCC)ccc21	2.1	-7	13	4.3%	5.1	14
CCC(=O)N(CC)c1nc(-c2cc(OC)ccc2OC)cs1	0.4	-1	4	6.8%[38.3 µM]	-9.5	11
Cc1ccc(S(=O)(=O)NNC(=O)c2sc(NS(=O)(=O)c3ccccc3)nc2C)cc1	0.5	7	-4	3.9%	0.5	0
Cc1c(C(=O)N(CC(C)C)c2c(N)n(Cc3ccccc3)c(=O)[nH]c2=O)sc2nc3n(c(=O)c12)CCC3	-0.9	-9	5	0.1%	-2.6	3
CN(C)C(=O)CSc1ccc(S(=O)(=O)N2CCOCC2)cn1	1.1	-3	12	1.3%	-4.0	-3
O=C(CSc1n[nH]c(-c2ccco2)n1)N1c2ccccc2Sc2ccccc21	0.1	2	-10	-2.8%	0.5	-11
COC(=O)c1ccc(OCC(=O)c2ccc(O)cc2O)cc1	-0.5	-9	0	-1.4%	-3.9	-3
Clc1cccc(Cl)c1OCCOCCNCc1ccccc1	-0.4	-66	-7	4.4%	-1.1	.
CCCCc1ccc(NC(=O)c2ccc(NS(C)(=O)=O)cc2)cc1	1.6	1	2	5.1%	5.4	3
CCCNC(=O)C(Cc1ccccc1)NC(=O)c1ccc(-c2ccccc2)cc1 (configuration not stated)	-0.7	0	1	4.4%	0.4	4
C=CCn1c(N2CCN(c3ccc(OC)cc3)CC2)nc2c1c(=O)n(C)c(=O)n2C	-0.3	-2	-17	0.4%	2.0	-3
CCOc1ccc(CCNC(=O)Cc2nn[nH]n2)cc1OCC	-0.4	14	5	-0.2%	-1.7	-9
Cc1c(/C=N/NC(=O)CNc2ccccc2)c2ccccn2c1C(=O)c1ccc(Cl)cc1	-0.1	-15	-20	2.5%	-3.3	20
COc1cc(NCc2ccccc2O)c2ncccc2c1	1.6	6	-8	0.3%	7.7	-6
CSc1ccc(CN(C)C(=O)CSCC(=O)Nc2ccc(C)cc2)cc1	1.0	8	-6	-0.5%	1.0	-1
Nc1c(C(=O)CSc2ncccn2)c(=O)[nH]c(=O)n1C1CC1	-0.4	7	-8	5.3%	-0.8	.
CN1CCN(C(=O)C(C(=O)c2ccc(F)cc2)n2ccccc2=O)CC1 (configuration not stated)	0.1	-26	-2	1.3%	-1.8	8
COc1ccc2c(c1)c1ncn(CCN3CCNCC3)c(=O)c1n2C	0.7	4	-14	0.9%[38.3 µM]	2.3	-15
Cc1c(Cl)cnc(NC(=O)COC(=O)c2ccc3c(c2)OCO3)c1Cl	0.6	-4	5	5.8%	-1.1	0
OC(c1ccc(Cl)cc1)c1ncc(-c2ccc(Oc3ccccc3)cc2)[nH]1 (configuration not stated)	-0.5	-17	-12	13%	-2.9	-27
O=C(CNC(=O)c1ccc(Cl)cc1)NCC(F)(F)F	-0.1	2	-5	0.6%	1.8	-1
O=C(CNC(=O)OCc1ccccc1)NC1(C(=O)O)CCCC1	0.2	4	1	5.2%	-3.9	2
Nc1nccnc1C(=O)OCC(=O)C12CC3CC(CC(C3)C1)C2	0.4	-11	5	-1.9%	-0.8	-2
Cc1ccc(C(=O)Nc2ccc(C)c(S(=O)(=O)N(C)C)c2)s1	0.7	-17	0	3.6%	-4.4	2
CC(=O)N1CCN(C(=O)C2(NC(=O)Nc3ccccc3Cl)CCCCC2)CC1	0.0	-2	7	1.8%	5.8	7
COc1ccc(CC(=O)Nc2cccc(S(=O)(=O)N3CCCC3)c2)cc1OC	3.7	3	0	-0.8%	13	4
Cc1ccc(N2CC(C(=O)NCCC3=CCCCC3)CC2=O)cc1 (configuration not stated)	1.0	14	3	3.5%	1.0	4
S=C1NNC2(CC3CC2C2CCCC32)NN1 (configuration not stated)	-0.1	-15	0	-0.6%	-0.6	.
CC(C)OP(=O)(OC(C)C)C1(NS(=O)(=O)c2ccc(Cl)cc2)C=C(Cl)C(=O)C(Cl)=C1	-0.6	-13	-9	1.2%	1.2	.
CC(=O)Nc1ccc(Nc2nc3ccccc3nc2NS(=O)(=O)c2ccc(Cl)c([N+](=O)[O-])c2)cc1	0.1	28	-22	0.3%	1.8	-3
CCn1c(=O)cc(SCC(=O)NCCC2=CCCCC2)c2ccccc21	1.5	-19	-7	0.2%	-6.1	-4
Cc1ccc(S(=O)(=O)NCc2ccccc2)cc1C(=O)N1CCCC(C(F)(F)F)C1 (configuration not stated)	0.6	13	5	0.5%	-9.4	6
O=C(NNS(=O)(=O)c1ccc([N+](=O)[O-])cc1)c1ccc2ccccc2c1O	-0.6	16	-3	-0.5%	1.7	-6

Whole records, quoted from the list. Screens in order: TRPML1 agonist, D2 potentiator, Six1-Eya2 blk, PINK1 expr mod, D2 agonist, CtBP-E1A blk
Listed for `CCn1c(=O)cc(SCC(=O)NCCC2=CCCCC2)c2ccccc21` = 1.5, -19, -7, 0.2%, -6.1, -4
Listed for `COc1ccc(CC(=O)Nc2cccc(S(=O)(=O)N3CCCC3)c2)cc1OC` = 3.7, 3, 0, -0.8%, 13, 4

New compounds follow.
SMILES	TRPML1 agonist	D2 potentiator	Six1-Eya2 blk	PINK1 expr mod	D2 agonist	CtBP-E1A blk
COc1ccccc1CNC(=O)COC(=O)Cn1cnc2c1c(=O)n(C)c(=O)n2C	-0.6	-4	-1	0.0%	-1.1	2
Cc1nonc1NC(=O)c1ccccc1Br	2.5	-3	2	1.0%[38.3 µM]	1.3	0
O=C1Nc2ccc(Br)cc2C1(O)c1ccccc1 (configuration not stated)	0.1	-10	20	1.8%	-1.6	3
O=C(c1ccco1)N1CCN(C(=O)C2CC(=O)N(c3ccc(Cl)cc3)C2)CC1 (configuration not stated)	1.1	-3	12	3.6%	-5.3	-17
CNc1cc(-c2cccc(OC)c2F)nc2ccnn12	-1.1	-9	1	-0.3%	-3.7	-5
COc1cccc(N2CCN(C(=O)c3ccc(=O)oc3)CC2C)c1 (configuration not stated)	0.2	-24	4	1.2%	0.6	-2
O=C(NCc1ccncc1)c1cccc(S(=O)(=O)Nc2ccc(SC(F)F)cc2)c1	0.7	8	-3	25%	-1.6	-2
Cc1cccc(-n2nnnc2SCc2csc(-c3ccccc3)n2)c1	0.8	-1	31	-1.2%	-1.1	41

Compounds above that have a thiophene ring, fused or not (2):
SMILES	TRPML1 agonist	D2 potentiator	Six1-Eya2 blk	PINK1 expr mod	D2 agonist	CtBP-E1A blk
Cc1c(C(=O)N(CC(C)C)c2c(N)n(Cc3ccccc3)c(=O)[nH]c2=O)sc2nc3n(c(=O)c12)CCC3	-0.9	-9	5	0.1%	-2.6	3
Cc1ccc(C(=O)Nc2ccc(C)c(S(=O)(=O)N(C)C)c2)s1	0.7	-17	0	3.6%	-4.4	2

Other entries follow.
SMILES	TRPML1 agonist	D2 potentiator	Six1-Eya2 blk	PINK1 expr mod	D2 agonist	CtBP-E1A blk
Cc1ccc(C2=NS(=O)(=O)N(C)C(C(=O)NCc3ccc(F)cc3)=C2)cc1	1.1	-10	-3	0.4%	-7.0	3
CN(CCc1ccccn1)C(=O)CCC1CCCN(C(=O)c2ccsc2)C1 (configuration not stated)	-0.5	-16	-2	-2.9%	-4.3	-7
COc1ccc2[nH]c(C(=O)Nc3ccc4c(c3)OCO4)cc2c1	1.3	-7	10	11%	-0.7	24
CCCCN(C(=O)COC(=O)c1ccc(C=O)cc1)c1c(N)n(CCC)c(=O)[nH]c1=O	0.7	-16	16	-0.1%	0.6	21
O=C(Cn1c(-c2cscn2)nc2ccccc21)Nc1cc(F)ccc1F	1.3	-9	0	2.6%[38.3 µM]	-1.5	-4
CC(=O)Nc1ccc(C(=O)COC(=O)CCN2C(=O)C3CC=CCC3C2=O)cc1 (configuration not stated)	-0.4	-1	0	0.3%	-1.8	-2
COc1cc(OC)c(C(=O)OCC(=O)Nc2cc(C)on2)cc1OC	1.5	-7	-4	-1.0%	-2.8	-7
O=C(Nc1ccccc1F)c1ccc(S(=O)(=O)NCC2CCCO2)cc1 (configuration not stated)	-0.8	8	4	4.6%[38.3 µM]	-1.7	18
COc1ccc(CCN(C(=O)c2cccc(F)c2)C2CC(=O)N(c3ccc(OC)cc3)C2=O)cc1 (configuration not stated)	0.5	-2	2	3.0%	-0.6	4
COc1cccc(S(=O)(=O)NCC(=O)N2CCCC2)c1	0.0	-2	4	0.8%	2.8	6
Fc1cccc(Cl)c1-c1nnc2ccc(C(F)(F)F)cn12	1.1	0	6	1.4%	2.5	0
Cc1ccc(N(C(=O)Cc2cccs2)C(C(=O)NCC2CCCO2)c2ccncc2)cc1 (configuration not stated)	1.5	5	0	-1.0%	0.6	-13
COc1ccc(N2CC(C(=O)Nc3ccc(S(=O)(=O)N4CCCC4)cc3)CC2=O)cc1 (configuration not stated)	-0.2	-2	0	-0.6%	-1.1	-1
COc1ccc(CCn2c(=N)c(C(=O)NCc3ccco3)cc3c(=O)n4ccccc4nc32)cc1OC	0.2	-6	-74*	3.2%	-3.4	.
COc1ccc(NC(=O)Cc2nnc(SCC(=O)Nc3nccs3)n2C)cc1	-0.4	2	-1	2.3%	-7.1	-7
